Screening data from PubChem.
GALR2 ag – agonists of human galanin receptor 2 (GALR2). O43603. activation, %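 (tested at 5 µM)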. AID 803. hit rate 0.48% among 140,000. GALR2-expressing cells, agonist activation read-out;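 active means above mean plus 3 SD of all compounds, about 5% in these data, not always enough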;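 further: 0% = vehicle buffer wells and 100% = reference agonist at full effect; tested in CHO reporter cells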
Target sequence (O43603 whole entry, looked up): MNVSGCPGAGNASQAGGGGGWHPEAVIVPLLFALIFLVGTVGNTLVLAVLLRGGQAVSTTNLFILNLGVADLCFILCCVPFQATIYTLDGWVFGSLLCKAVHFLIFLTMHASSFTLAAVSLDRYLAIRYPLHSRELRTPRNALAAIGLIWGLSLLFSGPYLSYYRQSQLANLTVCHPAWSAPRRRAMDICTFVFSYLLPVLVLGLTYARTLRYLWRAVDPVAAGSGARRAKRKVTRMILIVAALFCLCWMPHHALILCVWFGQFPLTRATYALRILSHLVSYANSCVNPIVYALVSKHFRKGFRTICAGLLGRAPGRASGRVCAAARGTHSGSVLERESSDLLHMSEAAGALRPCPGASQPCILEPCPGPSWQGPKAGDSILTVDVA
RGS16-Gao – modulates binding between human RGS16 and Galphao | binding response (% of control), % at 10 µM | hit rate 0.38% among 220,000 | AID 1441 | bead-based flow cytometry RGS16-Galphao binding, fluorescence; actives lie on both sides | O15492+P09471;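 active means below 25% or above 175%, edge rows of some plates excepted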;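 further: Galphao activated by GDP with aluminum fluoride before binding; 100% = wells without compound and 0% = beads without RGS; some results beyond the cut were filed as inactive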
Target sequence (O15492 whole entry, looked up): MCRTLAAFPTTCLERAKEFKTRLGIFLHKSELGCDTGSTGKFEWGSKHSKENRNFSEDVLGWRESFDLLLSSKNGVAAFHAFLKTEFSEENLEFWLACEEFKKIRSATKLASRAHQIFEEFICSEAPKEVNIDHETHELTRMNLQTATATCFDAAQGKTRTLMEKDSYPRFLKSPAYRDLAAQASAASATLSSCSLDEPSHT
Target sequence (P09471 whole entry, looked up): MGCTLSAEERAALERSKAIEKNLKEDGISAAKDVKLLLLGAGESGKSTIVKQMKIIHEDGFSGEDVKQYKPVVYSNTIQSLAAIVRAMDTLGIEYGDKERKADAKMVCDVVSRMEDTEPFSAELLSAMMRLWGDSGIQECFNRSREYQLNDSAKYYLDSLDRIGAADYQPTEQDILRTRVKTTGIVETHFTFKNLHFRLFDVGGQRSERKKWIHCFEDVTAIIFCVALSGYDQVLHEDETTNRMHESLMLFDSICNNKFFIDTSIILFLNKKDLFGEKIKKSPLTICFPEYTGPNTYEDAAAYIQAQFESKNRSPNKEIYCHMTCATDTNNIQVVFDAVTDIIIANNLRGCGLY
PKD1 kinase inh – PKD1 (human) kinase inhibition. AID 797. PKD1 kinase fluorescence polarization assay. Q15139. inhibition, %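 (about 10 µM by stock and volumes)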. hit rate 0.056% among 200,000;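 active means inhibition of 50% or more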;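 further: controls were vehicle for no effect and a reference inhibitor for full effect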
HSV augment – HSV replication enhancement; maximum fold increase; AID 1956; hit rate 0.005% among 220,000; HSV replication augmentation in cells, fold increase;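 active means peak rise of 1.5-fold or more in the series; tested in PC3 cells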;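 further: first round at 10 µM; read as green reporter fluorescence; hits show the peak of a series up to 25 µM; 1 = signal of infected wells without compound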
INS promoter inh – TRM-6 insulin promoter activity inhibition | TRM-6 cells (human fetal islet line), insulin promoter-eGFP reporter, imaging; reporter expression induced with tamoxifen | inhibition, % at 2 µM | hit rate 0.9% among 130,000;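 active means inhibition above the mean plus 3 SD, with well images judged a real hit on visual review, cut at about 60% in these data, passing the limit was not always enough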
INS promoter inh cell count – second read-out of INS promoter inh, no call of its own (marks repeat the call); normalized cell count, %; measured here: cell count, toxicity; reference of the scale not given here;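 cells exposed to compound for 48 h; stained nuclei by imaging scaled within each plate; lower means fewer cells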
HSV augment primary fold – recorded beside HSV augment, whose call it bears; fold increase; compound at 10 µM; measured here: primary screen fold increase 10 uM; tested in PC3 cells;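 GFP signal in the first replicate; 1 = infected wells without compound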
Active calls of the source: *; i = inactive; · = not tested or not shown.

SMILES	GALR2 ag	RGS16-Gao	PKD1 kinase inh	HSV augment	HSV augment primary fold	INS promoter inh	INS promoter inh cell count
O=C(O)CS(=O)CC(=O)NCc1cccc(C(F)(F)F)c1 (centres undefined)	·	99.4	0.4	i	0.85	29.4	93.2
NC(=O)CC(NC(=O)Cc1ccc(Cl)cc1)c1ccc(NCc2ccccc2)c([N+](=O)[O-])c1 (centres undefined)	·	90.3	·	i	0.835	·	·
CNC(=O)COC(=O)c1ccccc1Oc1ccccc1	-0.9	102.8	3.1	i	0.86	14.3	93.8
O=C(CSc1nnc(-c2cccnc2)n1Cc1ccccc1)NCc1ccccc1	-3.3	102.0	-5.2	i	0.987	43.8	123.3
COc1cc2c(cc1NC(=O)CCCN1C(=O)CCC1=O)oc1ccccc12	-1.6	110.1	-4.4	i	0.92	i	50.3
Nc1ccc(S(=O)(=O)N2CCCC2)cc1Cl	·	98.7	·	i	1.24	·	·
CCC(C)NC(=O)CC(NS(=O)(=O)c1ccc(Cl)cc1)c1ccco1 (centres undefined)	-1.6	96.9	-0.9	i	1.18	27.3	127.6
O=C1N/C(=C/c2cccn2-c2ccc(F)cc2)C(=O)N1Cc1ccccc1F	0.5	110.5	-9.8	i	0.9	·	·
CC(=O)NC1(C(F)(F)F)NC(=O)N(c2ccc(F)cc2)C1=O (centres undefined)	·	102.6	1.3	i	1.02	·	·
CCC1C(=O)c2ccccc2N(C)C1=O (centres undefined)	-2.4	111.2	-5.2	i	1	·	·

The closing 2 compounds of the section before open the next one:
SMILES	GALR2 ag	RGS16-Gao	PKD1 kinase inh	HSV augment	HSV augment primary fold	INS promoter inh	INS promoter inh cell count
CC(=O)NC1(C(F)(F)F)NC(=O)N(c2ccc(F)cc2)C1=O (centres undefined)	·	102.6	1.3	i	1.02	·	·
CCC1C(=O)c2ccccc2N(C)C1=O (centres undefined)	-2.4	111.2	-5.2	i	1	·	·
COc1ccc(C)cc1Nc1nnc(C)c(=O)[nH]1	·	99.0	1.6	i	0.97	-39.5	108.5
Cc1cn(COC/C=C/c2ccccc2)c(=O)[nH]c1=O	-1.8	105.8	-18.5	i	0.91	·	·
Cc1cc(C)c(NC(=O)C2CCCN2CCC(C)C)c(C)c1 (centres undefined)	-0.4	109.5	-10.7	i	0.89	-237.5	117.0
Cc1ccc(NC(=O)c2cc(Cl)ccc2[N+](=O)[O-])cc1C	-0.1	99.7	-9.0	i	0.96	-43.8	86.7
COc1ccc(C(CC(=O)c2ccccc2)S(=O)(=O)c2ccc(C)cc2)cc1 (centres undefined)	-3.2	116.8	13.5	i	0.8	·	·
COc1ccc(CN2CCN(CCC(C)C)C(CCO)C2)cc1Cn1cccn1 (centres undefined)	·	99.7	1.3	i	0.92	·	·
Nn1c(SCc2cccc(F)c2)nnc1-c1ccncc1	·	92.2	·	i	0.94	·	·
O=C(Nc1nc2ccccc2[nH]1)C1CCN(S(=O)(=O)c2cccs2)CC1	-0.8	99.5	-5.9	i	0.97	13.5	137.3
COC(=O)[C@H](CCSC)NC(=O)NCc1ccccc1F	-0.7	99.8	11.3	i	1.01	-2.6	98.1
CN(C)c1ccc(C(=O)NCc2ccc3c(c2)CCO3)cc1	·	102.3	·	i	0.94	·	·

Profiles from above:
CC(=O)NC1(C(F)(F)F)NC(=O)N(c2ccc(F)cc2)C1=O (centres undefined) across the screens: GALR2 ag = ·; RGS16-Gao = 102.6; PKD1 kinase inh = 1.3; HSV augment = i; HSV augment primary fold = 1.02; INS promoter inh = ·; INS promoter inh cell count = ·
O=C1N/C(=C/c2cccn2-c2ccc(F)cc2)C(=O)N1Cc1ccccc1F across the screens: GALR2 ag = 0.5; RGS16-Gao = 110.5; PKD1 kinase inh = -9.8; HSV augment = i; HSV augment primary fold = 0.9; INS promoter inh = ·; INS promoter inh cell count = ·
COc1ccc(C(CC(=O)c2ccccc2)S(=O)(=O)c2ccc(C)cc2)cc1 (centres undefined) across the screens: GALR2 ag = -3.2; RGS16-Gao = 116.8; PKD1 kinase inh = 13.5; HSV augment = i; HSV augment primary fold = 0.8; INS promoter inh = ·; INS promoter inh cell count = ·

(continued)
SMILES	GALR2 ag	RGS16-Gao	PKD1 kinase inh	HSV augment	HSV augment primary fold	INS promoter inh	INS promoter inh cell count
COC(=O)CSc1nnc(-c2cccnc2)n1C	·	99.0	-2.7	i	0.86	·	·
Cc1oc(-c2ccc3c(c2)OCCO3)cc1C(=O)NCC(=O)O	·	118.6	2.9	i	1	-81.0	172.5
CCSc1nnc(Cn2c(=O)sc3ccccc32)n1-c1ccc(OC)cc1	-0.5	96.2	-14.9	i	1.42	·	·
COCCc1nnc(NC(=O)Cc2ccccc2)s1	-1.7	72.5	-7.7	i	0.86	12.1	82.2
C=CCn1c(-c2cccc(Cl)c2)n[nH]c1=S	-1.8	104.9	-8.7	i	1.01	·	·
CCOC(=O)C1(Cc2ccccc2)CCCN(Cc2cnn(CC)c2)C1 (centres undefined)	·	101.9	-10.3	i	0.98	·	·
COCCN(CCOC)C(=O)c1sc2nc(-c3ccccc3)cn2c1C	0.1	106.0	-6.2	i	1.04	-72.7	30.3
COc1ccc(NC(=O)C2CCCN(S(=O)(=O)c3c(C)n[nH]c3C)C2)c(OC)c1 (centres undefined)	-1.6	104.1	-5.9	i	0.91	·	·
O=C(NCCc1cccc(Cl)c1)c1cc([N+](=O)[O-])ccc1Cl	-0.7	104.5	-5.6	i	0.58	41.7	125.1
Clc1ccccc1CNCc1ccncc1	·	98.6	-2.6	i	1.01	58.3	73.7
COC(=O)CCCC1=CC2=C(c3ccccc3)C(=O)C(C)(OC(=O)C3CCCC3)C(=O)C2=CN1Cc1ccco1 (centres undefined)	·	105.8	·	i	0.89	·	·
CCC(=O)Oc1ccc2ccccc2c1CNC(=O)c1ccccc1	-1.3	100.6	14.1	i	0.89	12.5	118.0
O=C(O)CCNC1C=CS(=O)(=O)C1 (centres undefined)	·	98.9	-4.3	i	1	18.8	78.1
CCCC1c2ccc(C)n2CCN1C(=O)Nc1ccccc1Cl (centres undefined)	-2.7	105.4	-3.9	i	1.2	-42.3	114.0
O=C(COC(=O)c1cccs1)NCC1CCCO1 (centres undefined)	-3.6	82.8	-4.6	i	0.91	18.2	71.4
CN(C)c1ccc(/C=c2/sc3n(c2=O)NC2(c4ccccc4)N(C)C(=O)N(C)C2(c2ccccc2)N=3)cc1 (centres undefined)	-0.8	46.5	-2.9	i	1.06	-93.8	61.1
O=c1c2c(n3cnnc3n1C1CCCCC1)-c1ccccc1CC21CCCCC1	-0.9	113.9	-4.0	i	0.86	-38.9	72.2
CCN(CC)S(=O)(=O)c1ccc(-c2nnc(SCC(=O)N3c4ccccc4CC3C)o2)cc1 (centres undefined)	-3.2	98.3	2.1	i	0.98	25.8	105.1
COc1ccc(OC(=O)c2cc3ccccc3o2)cc1	-3.6	101.9	2.5	i	0.957	60.0	98.0
Cc1[nH]c2ccccc2c1C(=O)CCl	·	105.2	1.6	i	0.94	·	·
COC(=O)CSc1ncnc2scc(-c3ccccc3)c12	·	99.3	·	i	1.02	·	·
CCOC(=O)CNc1nc(OCC#N)nc(N2CCOCC2)n1	0.5	100.4	1.7	i	1.42	-35.7	127.1
O=C(NC(NC(=S)N1CCOCC1)C(Cl)(Cl)Cl)c1cccc2ccccc12 (centres undefined)	-0.6	104.7	-2.2	i	1.11	-100.0	70.6
CCCc1cc(=O)[nH]c(SCC)n1	-1.2	107.3	-12.1	i	0.66	·	·
COc1cccc(NC(=S)N2CCn3cccc3C2c2cccnc2)c1 (centres undefined)	·	104.1	6.5	i	1.02	·	·
CN1CCN(CCCNC(=O)c2ccc(CS(=O)(=O)c3ccc(Br)cc3)o2)CC1	-3.7	103.2	-9.6	i	0.85	·	·
O=C(COC(=O)Cc1c(Cl)cccc1Cl)Nc1ccccc1-c1ccccc1	-1.0	91.8	0.8	·	·	-53.9	130.4
COCCNC(=O)c1cc(-c2ccncc2)nc2ccc(S(=O)(=O)N3CCOCC3)cc12	·	103.8	-3.8	i	0.97	-35.7	99.0
O=C(CCn1c(=O)oc2ccccc21)Nc1cccc(Cl)c1	-1.1	103.5	3.9	i	0.83	·	·
COc1ccc(N2CCN(Cc3cc(=O)oc4ccc(Cl)cc34)CC2)cc1	-0.4	80.1	4.5	i	0.96	-53.9	65.1
Cc1ccccc1CSc1nc2c(c(=O)[nH]1)CCC2	0.2	100.8	3.3	i	0.92	·	·
Clc1ccc(-n2ncc3c(N4CCCC4)ncnc32)cc1	-0.6	101.1	-3.6	i	0.95	37.9	117.0
c1ccc(SCc2nc(-c3ccncc3)n[nH]2)nc1	·	101.2	-3.1	i	0.96	·	·
CC(=O)OCC(=O)N1CCN(c2ccc([N+](=O)[O-])cc2)CC1	0.6	100.1	-2.2	i	0.97	-2.9	119.5
COc1ccc(-c2n[nH]c(C(F)(F)F)c2-c2cc3ccccc3o2)c(O)c1	-2.6	103.3	-3.5	i	1.06	-9.1	68.1
CC(C)(C)OC(=O)N[C@@H](CCCCNC(=O)OCc1ccccc1)c1nnc([C@H](CCCCNC(=O)OCc2ccccc2)NC(=O)OC(C)(C)C)o1	·	86.2	·	i	0.87	·	·
COCCN(CCOC)C(=O)C12CCC(C)(C(=O)C1)C2(C)C (centres undefined)	-1.9	90.5	8.2	i	0.98	-21.4	57.6
CC(=O)Oc1ccc(C(=O)Nc2cccc(-c3nnc(-c4ccco4)o3)c2)cc1	·	95.5	·	i	0.95	·	·
COc1ccccc1C(=O)NNC(=O)C(=O)NCc1ccccc1	·	103.7	-0.5	i	1.04	·	·
CCCCOC(=O)n1ccc(C(=O)Nc2ccccc2OC)n1	-2.3	103.4	-0.2	i	0.91	31.4	142.4
CC(C)OC(=O)c1nn2c(C(F)(F)F)cc(-c3ccco3)nc2c1Cl	-0.1	96.9	-4.1	i	0.98	-180.9	134.1
Cc1cccc(-n2c(O)c(C=Nc3c(C)n(C)n(-c4ccccc4)c3=O)c3ccccc3c2=O)n1	4.4	99.2	3.5	i	0.96	21.4	106.2
CC1(C)C(c2ccccc2)=[N+]([O-])C2(CCCCC2=O)N1O (centres undefined)	-2.8	103.4	-1.4	i	0.933	18.8	69.2
CCCCNC(=S)NCc1ccc2c(c1)cc(C)n2C	-1.8	104.4	2.6	i	0.75	17.1	120.7
Cc1ccc(NC(=O)COC(=O)Cn2c(C)csc2=O)cc1	-2.8	103.8	-8.9	i	0.61	·	·
Cc1cc(NC(=O)CSc2nc(C3CCCCC3)nc3ccccc23)no1	-1.6	103.0	0.6	i	0.71	3.5	57.8
COc1ccc(NC(=S)NCc2cccs2)cc1OC	·	104.0	-4.9	i	0.89	·	·
COc1cc(NC(=O)c2cccs2)c(OC)cc1NC(=O)CCC(=O)Nc1cccc2ncccc12	·	89.2	-1.5	i	1.06	28.6	85.7
O=C(CCc1ccc(Oc2cc([N+](=O)[O-])cc([N+](=O)[O-])c2)cc1)NC1CCCC1	1.2	103.9	-5.4	i	1.02	-2.8	145.2
CC(C)c1ccc(OCc2ccc(C(=O)O)o2)cc1	·	88.6	·	i	0.98	·	·
Next section
SMILES	GALR2 ag	RGS16-Gao	PKD1 kinase inh	HSV augment	HSV augment primary fold	INS promoter inh	INS promoter inh cell count
COc1cc(/C=C\C(=O)Nc2cc(=O)n(C)c(=O)n2C)cc(OC)c1OC	·	100.1	-2.8	i	0.96	0.0	62.2
Cc1cc(C)cc(OCC(=O)NCCN2CCOCC2)c1	-0.8	102.1	-3.9	i	1.02	·	·
CCSCc1nnc(SCC(=O)Nc2ccc(OC)cc2)n1C	·	96.7	5.4	i	1	-82.3	80.2
O=C(Nc1ccc(N2CCN(C(=O)c3cccs3)CC2)cc1)c1cccnc1Cl	·	98.2	-9.4	i	0.99	·	·
O=C(NCC(c1cccs1)N1CCOCC1)c1ccc(Cl)s1 (centres undefined)	-0.2	102.2	9.7	i	0.64	0.0	51.1
CCN(CC)CCOC(=O)CCc1cccc2ccccc12	-0.8	102.6	3.8	i	1.01	-42.9	104.4
Cc1noc(COc2ccccc2OCc2onc(C)c2Cl)c1Cl	-1.9	89.3	-0.2	i	0.85	-70.0	81.2
Cc1cc(N2CCCC2)nc2ccc(NC(=S)NC(C)C)cc12	·	99.2	2.2	i	0.82	·	·
CCC(=O)Nc1cccc(-c2csc(-c3ccccc3)n2)c1	-0.7	102.5	1.2	i	0.85	0.0	144.7
Cc1ccc(CC(=O)N/N=C/c2ccc(OC(=O)c3ccc([N+](=O)[O-])cc3)cc2)cc1	-0.9	100.8	-1.2	i	1.03	34.4	80.8
Cc1cccc(N(CC(=O)Nc2c(C)n(C)n(-c3ccccc3)c2=O)S(C)(=O)=O)c1C	0.6	105.0	-7.1	i	0.77	13.3	123.1
